miR-21 reporter: miR-21 reporter, rising signal; Potency, µM (series often up to 38.3 µM), for the others: at the top dose reporter change, positive = more light; HeLa miR-21 FLuc reporter, luciferase, 48 h; AID 2288; 340,000 tested, under 10 active; active = well fitted rising curve with a large enough effect; inconclusive = small, poorly fitted or top-dose-only effect; inactive = no such curve, though single readings can be large or run the other way;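 also: % of control where 0% means no effect; miR-21 action dims this reporter so a rising signal means less miR-21 action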
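HeLa cells stably expressing CMV-driven firefly luciferase with a downstream miR-21 binding sequence, endogenously expressing miR-21, were treated with titrations (up to about 40uM final) for 48 hours at 37 degree Celsius. Luciferase luminescence was read after lysis.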
Rango-impB inh: inhibitors of Rango-importin beta complex formation | actives 0.031% (n = 340,000) | AID 540263 | Q14974 | Rango CFP/YFP FRET sensor + importin beta, 45 min | Potency, µM (titrated, usually from 92.2 µM), for inactives: at the highest dose inhibition of complex formation; active = rising FRET ratio curve, often small or poorly fitted; inconclusive = mostly compound fluorescence or quenching in the first reads; inactive = flat curves in all reads;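 also: potency is read from the fitted curve at half-maximal effect; 0% = DMSO wells and 100% = buffer wells lacking importin beta; nearly all actives have a fitted effect of over 15% in size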
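FRET biosensor Rango (snurportin 1 IBB between N-terminal EYFP and C-terminal Cerulean), 50 nM in PBS/1 mM DTT/0.02% Tween-20/0.1% BSA, preincubated 5 min RT with compound; 0.125 microM importin beta added, 45 min RT, CFP/YFP FRET ratio read.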
Rango dissoc inh: inhibitors of RanGTP-induced Rango-importin beta complex dissociation. O95149+P62826. Biochemical FRET Rango-importin beta, RanGTP-induced dissociation. Potency, µM (series often up to 46.1 µM), without a hit: top-dose activity change, negative = inhibition. actives 0.071% (n = 340,000). AID 540253; active means falling FRET ratio curve, often poorly fitted, with flat reads before Ran was added; inconclusive means other falling curves, or compound fluorescence or quenching; inactive means flat or rising ratio curve;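 also: potency is read from the fitted curve at half-maximal effect; % of control where 0% means no effect; nearly all actives have a fitted effect of over 45% in size; -100% = wells without RanGTP and RCC1; the record marks most hits as doubtful in a second field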
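Compounds preincubate 5 min with complex of recombinant Rango and importin beta in PBS with 1 mM DTT. Ran (0.6 uM) loaded with 2 mM GTP plus 0.2 uM RCC1 starts dissociation; FRET is recorded 45 min later.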
GLA inh pH 4.5: alpha-galactosidase A (human) inhibition, pH 4.5; P06280; AID 1467; purified enzyme, 4-MU-alpha-Gal fluorescence, pH 4.5; 230,000 tested, under 10 active; activity change, negative = inhibition, % at 105 µM; inconclusive = small, poorly fitted or top-dose-only inhibition, or a rising curve; inactive = flat fitted curve, though single readings scatter; no compound was filed as active;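 also: 0% = full activity with enzyme and -100% = basal without enzyme; dose as in the result columns while the protocol names 77 µM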
Target sequence (P06280 whole entry, looked up): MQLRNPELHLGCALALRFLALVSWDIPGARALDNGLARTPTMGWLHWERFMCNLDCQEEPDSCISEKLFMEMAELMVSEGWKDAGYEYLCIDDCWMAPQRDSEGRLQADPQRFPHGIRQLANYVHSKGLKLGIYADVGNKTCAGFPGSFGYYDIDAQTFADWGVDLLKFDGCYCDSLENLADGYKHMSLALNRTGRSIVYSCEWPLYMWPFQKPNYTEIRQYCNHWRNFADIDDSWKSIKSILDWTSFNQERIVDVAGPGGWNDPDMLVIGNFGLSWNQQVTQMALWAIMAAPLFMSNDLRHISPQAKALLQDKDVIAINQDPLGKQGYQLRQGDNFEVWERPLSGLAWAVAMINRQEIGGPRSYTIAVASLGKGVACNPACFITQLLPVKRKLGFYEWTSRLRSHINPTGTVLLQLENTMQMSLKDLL
An asterisk follows results filed as active; ? = inconclusive; / = not tested or not shown; & = joins results of further samples. This is a subset. The share of hits here may be higher or lower than overall.

miR-21 reporter	Rango-impB inh	Rango dissoc inh	Compound	GLA inh pH 4.5
-48%	-0.2%	-6%	COc1ccccc1NC(=O)c1ccc2nc(C)sc2c1	/
/	-1.9%	-13%	CSCCC(NC(=O)c1cccc(S(=O)(=O)N2CCOCC2)c1)c1nc2ccccc2[nH]1 (centres undefined)	/
3%	3.9%	-10%	CN1CCN(c2ccc(NC(=O)CSc3nnnn3-c3ccccc3Cl)cc2)CC1	/
0%	1.4%	?	O=C(NCc1ccccc1)C(=O)Nc1nccs1	-18
2%	0.9%	-10%	Cc1cccc(Nc2nc(N)nc(CN3CCN(c4ccc(F)cc4)CC3)n2)c1	4
/	-6.6%	-3%	CCOc1ccc(CCNC(=O)COC(=O)CCc2cc(OC)c(OC)c(OC)c2)cc1OCC	/
/	-1.3%	4%	CCN(CC(=O)NCc1cccs1)C(=O)c1cccc(S(=O)(=O)Nc2ccc(OC)cc2)c1	/
-5%&-6%	4.8%&1.7%	-8%&-16%	O=c1cc(O)nc(SCc2ccccc2)n1-c1ccccc1	5&-3
-1%	1.0%	2%	CC(C)N(CCNS(=O)(=O)c1ccc(Cl)cc1)C(C)C	0
1%	2.8%	-4%	COc1ccc(NC(=O)CSc2nc3c(c(=O)n(C)c(=O)n3C)n2C)c(OC)c1	/
1%	1.1%	3%	O=C1[C@@H]2CSCN2C(=O)CN1Cc1ccc(F)cc1	5
-2%	4.4%	-11%	Cc1cc(C)c2c(-n3cccc3)c(C(=O)NNS(=O)(=O)c3ccc(Cl)cc3)sc2n1	4
-4%	6.2%	4%	O=C(COC(=O)c1cc(-c2cccs2)nn1-c1ccccc1)Nc1cc([N+](=O)[O-])ccc1Cl	-11
3%	1.0%	15%	COc1cc2nc(NC(=O)c3ccccc3)[nH]c(=O)c2cc1OC	-4
1%	?	-12%	Cc1cccc(C(=O)NN(C)c2nc(-c3ccccc3)nnc2C(F)(F)F)c1	-19
4%	-4.3%	-5%	CN1C(=O)C2(c3ccccc31)N(C)CC(c1ccccc1)C21SC(=S)N(Cc2ccco2)C1=O (centres undefined)	-1
-3%	?	-5%	COc1cc(C2C3=C(CC(c4ccco4)CC3=O)Nc3ccccc3N2C(C)=O)cc(OC)c1OC (centres undefined)	-11
-49%	-0.5%	-8%	c1ccc(CCCc2nc(-c3ccccn3)no2)cc1	1
-3%	6.6%	10%	CCc1ccc(Oc2ncnc(N)c2[N+](=O)[O-])cc1	7
-8%	-1.8%	-15%	Clc1ccc2c(NCc3ccccn3)ccnc2c1	/
/	0.1%	1%	CC1CCCN(C(=O)CN(c2ccccc2)S(=O)(=O)c2ccc(F)cc2)C1 (centres undefined)	/
-11%	-1.4%	-15%	CCOc1ccc(NC(C(=O)Nc2cccc(C(C)=O)c2)c2ccccc2)cc1 (centres undefined)	1
1%	0.0%	-7%	CC1Cc2cc(S(=O)(=O)N3CCN(c4ccccc4)CC3)ccc2N1C(=O)C1CC1 (centres undefined)	/
-5%	0.0%	-3%	CCCc1cc(=O)oc2cc(C)cc(OCC(=O)NCCCN3CCCC3=O)c12	/

Complete entries, looked up by structure. Order of screens: miR-21 reporter	Rango-impB inh	Rango dissoc inh	GLA inh pH 4.5
`CCCc1cc(=O)oc2cc(C)cc(OCC(=O)NCCCN3CCCC3=O)c12` is listed with -5%	0.0%	-3%	/
`Clc1ccc2c(NCc3ccccn3)ccnc2c1` is listed with -8%	-1.8%	-15%	/
`CC1Cc2cc(S(=O)(=O)N3CCN(c4ccccc4)CC3)ccc2N1C(=O)C1CC1` (centres undefined) is listed with 1%	0.0%	-7%	/
`c1ccc(CCCc2nc(-c3ccccn3)no2)cc1` is listed with -49%	-0.5%	-8%	1

Continued.
miR-21 reporter	Rango-impB inh	Rango dissoc inh	Compound	GLA inh pH 4.5
-7%	2.9%	-4%	CCn1nnnc1SCC(=O)Nc1cc(C)on1	5
-7%	-3.7%	-21%	Cc1cc(C)n(-c2nc3ccccc3c(=O)n2OCc2ccc(Cl)cc2)n1	-2
-4%	-1.6%	2%	CCn1ncc([C@@H]2C[C@H]3CN(Cc4ccccc4C)C(=O)[C@]34CCCN24)c1C	0
-5%	4.9%	-2%	COc1ccc(NC(=O)COC(=O)/C=C/c2ccc(OC)c(S(=O)(=O)N3CCOCC3)c2)cc1	-3
0%	1.7%	10%	Cc1ccc(S(=O)(=O)N2CCN(C(=O)COC(=O)c3ccc(C(C)(C)C)cc3)CC2)c(C)c1	/
-29%	2.6%	7%	Cc1cc2nc(-c3ccc[nH]c3=O)n(Cc3ccccc3F)c2cc1C	/
-1%	1.2%	7%	O=C(CCNC(=O)c1ccco1)Nc1ccc(F)c(Cl)c1	/
-8%	-2.5%	0%	C=CCN(C(=O)c1csnn1)C(C(=O)NCc1ccc(F)cc1)c1ccc(F)cc1 (centres undefined)	/
2%	0.0%	-3%	COC(=O)N1C(=O)[C@@](c2ccccc2)(C(C)C)N1C(=O)OC	/
13%	?	7%	Cc1nnsc1C(=O)Nc1ccc(S(=O)(=O)N2CCC(C)CC2)cc1	/
-8%	-0.4%	1%	O=C(CCC(=O)Nc1ccc(Oc2ccccc2)cc1)NCCO	1
-3%	1.4%	2%	CCN1CCN(C(=S)NC(=O)c2cccs2)CC1	/
1%	-1.1%	17%	Cc1cc(C)c(N2C(=O)CCCC2=O)c(Cl)c1	/
-4%	-0.1%	-7%	Oc1ccc(/C=N/N2CCOCC2)c(O)c1O	-7
-11%	0.0%	2%	O=C1CC[C@H](O)CCN1[C@H](CSc1ccccc1)Cc1ccccc1	/
-4%	-1.5%	2%	CCOC(=O)C(=NCC1CCCO1)NNc1ccccc1Cl (centres undefined)	11

As a short view, 2 of the compounds above:
miR-21 reporter	Rango-impB inh	Rango dissoc inh	Compound	GLA inh pH 4.5
-7%	-3.7%	-21%	Cc1cc(C)n(-c2nc3ccccc3c(=O)n2OCc2ccc(Cl)cc2)n1	-2
-4%	-1.6%	2%	CCn1ncc([C@@H]2C[C@H]3CN(Cc4ccccc4C)C(=O)[C@]34CCCN24)c1C	0

The list goes on:
miR-21 reporter	Rango-impB inh	Rango dissoc inh	Compound	GLA inh pH 4.5
0%	1.5%	-8%	COc1cccc(NC(=O)NNC(=O)CN2C(=O)COc3ccccc32)c1	/
-4%	3.9%	9%	O=C(CSc1nc2ccsc2c(=O)n1CC1CCC(C(=O)O)CC1)NCCc1ccc(Cl)cc1 (centres undefined)	/
-4%	-3.8%	12%	COc1ccc(-c2c(C)n([O-])c3c([n+]2=O)CCCC3)cc1	-11
-4%	0.3%	-1%	COc1cc(C(=O)NCCC(C)C)c([N+](=O)[O-])cc1OC	7
?	-4.3%	-19%	Cc1cccc(N2CCN(C(=O)C3CCN(c4ncnc5c4nc4n5CCCCC4)CC3)CC2C)c1 (centres undefined)	/
/	?	-7%	O=C(CN1C(=O)NC(Cc2ccccc2)C1=O)Nc1ccccc1OC(F)F (centres undefined)	/
0%	-1.4%	0%	Cc1ccc(S(=O)(=O)Cc2ccc(C(=O)N3CCN(c4cc(C)ccc4C)CC3)o2)cc1	1
-28%	-3.0%	1%	CNC(=O)NC(=S)NC(=O)c1ccc(OC)cc1	4
13%	-1.9%	-1%	Fc1cccc(CNc2ncnc3cc(Cl)ccc23)c1F	/
-1%	-1.1%	-6%	Cc1nnn(-c2nonc2N)c1C(=O)NNC(=O)c1ccc(Cl)c(Cl)c1	-7
-10%	-4.8%	24%	CC(C)(C)c1csc(NC2=NS(=O)(=O)c3ccccc32)n1	-11
2%	8.4%	0%	CCN1CCN(CCCNC(=O)C2CCN(c3nnc(-n4c(C)ccc4C)s3)CC2)CC1	/
1%	-3.7%	0%	CC1CCC(NC(=O)CCn2ccc3cc(S(=O)(=O)N4CCCC4)ccc32)CC1 (centres undefined)	/
-4%	0.1%	-5%	COc1ccc(C(C[N+](=O)[O-])c2c(-c3ccccc3)cc3ccccn23)cc1OC (centres undefined)	9
-7%	?	?	CCOC(=O)C1CCN(c2cc(C)nc3cc(-c4cccc(F)c4)nn23)CC1	7
2%	-1.9%	-11%	O=C(CNC(=O)c1cccs1)OCC(=O)c1ccc([N+](=O)[O-])cc1	-8
-7%	3.8%	8%	N#CCc1nc2c3c4c(sc3ncn2n1)CCCC4	7
/	0.1%	-5%	Cn1cnc([N+](=O)[O-])c1S(=O)(=O)Oc1ccccc1	/
1%	?	-2%	O=C(CSc1nc(-c2ccccc2)cc(C(F)(F)F)n1)c1cccc([N+](=O)[O-])c1	3
/	-2.8%	-7%	CCOC(=O)C1C2C=CC(CC2)N1c1ccccc1 (centres undefined)	/
-2%	-0.5%	21%	COc1cc(/C=N\Nc2nc3ccccc3[nH]2)cc(OC)c1OC	1
-8%	0.9%	0%	COc1ccc(CN(C)C(=O)COC(=O)c2ccc3c(c2)OCO3)cc1OC	-12
-19%	-0.9%	5%	CCCCCC1(C)NC(=S)N(c2ccccc2)N1 (centres undefined)	-3
/	-1.3%	-9%	Cc1ccc(S(=O)(=O)N2CCCCC2CCNC(=O)C(=O)NCc2cccnc2)cc1 (centres undefined)	/
4%	0.1%	0%	CCOC(=O)C1=C(C)N=c2s/c(=C/c3cccc([N+](=O)[O-])c3O)c(=O)n2C1c1ccc(OC)cc1OC (centres undefined)	/
-6%	5.1%	10%	Cc1cc(-c2ccccc2)nc2cc(C(=O)NCCCn3ccnc3)nn12	4
-7%	-1.8%	4%	CC1(C)CC2CC(C)(CN2Cc2c(O)ccc3ccccc23)C1 (centres undefined)	10
3%	-5.4%	-1%	O=C1[C@@H]2C(Cc3ccc(O)cc3)NC3(C(=O)Nc4ccc(F)cc43)[C@@H]2C(=O)N1c1ccc(F)cc1 (some centres undefined)	-2
2%	-0.2%	16%	O=C1C(=O)N(Cc2cccnc2)C(c2cccc([N+](=O)[O-])c2)/C1=C(\O)c1ccc2c(c1)OCCO2 (centres undefined)	/
-24%	-1.0%	-13%	C[C@]12C=CC(=O)C=C1CC[C@@H]1[C@@H]2[C@@H](O)C[C@@]2(C)[C@H]1CC[C@]2(O)C(=O)CO	/
-13%	2.9%	-7%	O=C(Cc1ccccc1)c1nnc(-c2ccccc2)o1	5
-2%	-0.4%	3%	O=c1nc2ccccc2c(NS(=O)(=O)c2ccccc2)n1-c1ccccc1	3

Copied from the list.
In Rango-impB inh, CCN1CCN(C(=S)NC(=O)c2cccs2)CC1 shows 1.4%
In Rango dissoc inh, CSCCC(NC(=O)c1cccc(S(=O)(=O)N2CCOCC2)c1)c1nc2ccccc2[nH]1 (centres undefined) shows -13%

Carrying on.
miR-21 reporter	Rango-impB inh	Rango dissoc inh	Compound	GLA inh pH 4.5
-2%	0.5%	-12%	Cc1ccccc1Cn1cc(C)c(=O)[nH]c1=O	-9
-3%	-0.6%	11%	Cc1cccc(N2CCN(C(=O)Cn3cnc4c3c(=O)n(C)c(=O)n4C)CC2)c1C	-3
-9%	-0.4%	0%	Cc1c(OCC(=O)NCC(O)c2ccccc2)ccc2c3c(c(=O)oc12)CCC3 (centres undefined)	/
/	4.9%	-6%	CC1(C)Cc2cccc(OCC(=O)N3CCN(c4ccccc4Cl)CC3)c2O1	/
/	5.4%	1%	N=c1ccn2c(n1)O[C@H]1[C@@H](CO)[C@H](O)O[C@H]12	/
1%	3.4%	-16%	Cc1ccc(NC(=O)c2cc(NC(=O)CCC(=O)O)ccc2N2CCCCC2)cc1	3
1%	-0.4%	3%	CS(=O)(=O)N1CCN(c2ccc([N+](=O)[O-])cc2C(F)(F)F)CC1	-4
5%	?	-9%	CCCc1noc2c1C(c1cc(Br)ccc1F)C(C#N)=C(N)N2 (centres undefined)	4
-1%	-4.1%	-21%	O=C(c1cccc(F)c1)N1CCN(c2cccc(C(F)(F)F)c2)CC1	-6
3%	2.4%	2%	O=C(NCc1ccco1)C1CCN(C(=O)c2ccc(Cl)cc2Cl)CC1	/
-2%	1.1%	16%	CCc1ccc(-c2cc(C)no2)cc1S(=O)(=O)N1CCN(c2ccccn2)CC1	/
/	-2.4%	-6%	OC(CCc1ccncc1)COc1ccccc1 (centres undefined)	/
0%	0.9%	9%	CCOC(=O)c1cc(C#N)c(SCc2cccc3ccccc23)nc1C	1
-2%	/	/	COc1ccc(N(CC(=O)NCCC2=CCCCC2)S(=O)(=O)c2ccc(C)cc2)cc1	3
1%	0.3%	-6%	CC(C)(C)c1ccc(OCC(=O)N/N=C/C2CC=CCC2)cc1 (centres undefined)	-3

Screens as filed in PubChem BioAssay.
